A1 apoptosis 2: A1 inhibitors via caspase activation, primary screen, cell-based, luminescence, HTS, two replicates; MEF A1-2A-BIM cells, caspase-Glo luminescence, 3 h; percent of clofoctol response, DMSO zero; caspase activation, % (test concentration not listed); 24,000 tested, under 10 active; AID 2465, 2010; in the data active = caspase activation above about 5.9%;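 note: wells of about 30 µL received 50 nL stock; the first replicate is given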
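Evaluation: Caspase-3/7 activity from luminescence increase | Assay system: A1-2A-BIM mouse embryonic fibroblasts | Quantity: 2500 MEF cells/well | Medium: RPMI-1640 plus 10% FBS | Detection: Caspase-Glo 3/7 luminescence, 1 h at room temperature | Dosing: 50 nL compound per well, pinned | Timing: Cells settled overnight, compound exposure 3 h at 37 °C, 5% CO2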
* marks the source's active call; other numbers are inactive results. A portion of the library, so the mix of outcomes need not match the whole.

Preview, three compounds:
SMILES,A1 apoptosis 2
Cc1ccc(S(=O)(=O)Nc2ccc3c(c2)C(=O)N([C@@H](C)CO)C[C@H](C)[C@@H](CN(C)C(=O)CCC(F)(F)F)OCCCC[C@H](C)O3)cc1,0.7
Cc1noc(C)c1NC(=O)N(C)C[C@H]1OCCCC[C@H](C)Oc2ccc(NC(=O)CCC(F)(F)F)cc2C(=O)N([C@@H](C)CO)C[C@@H]1C,0.2
CC(C)NC(=O)N(C)C[C@@H]1Oc2c(NS(=O)(=O)c3ccc(F)cc3)cccc2C(=O)N([C@@H](C)CO)C[C@@H]1C,0.8

Main list, repeating the preview:
SMILES,A1 apoptosis 2
Cc1ccc(S(=O)(=O)Nc2ccc3c(c2)C(=O)N([C@@H](C)CO)C[C@H](C)[C@@H](CN(C)C(=O)CCC(F)(F)F)OCCCC[C@H](C)O3)cc1,0.7
Cc1noc(C)c1NC(=O)N(C)C[C@H]1OCCCC[C@H](C)Oc2ccc(NC(=O)CCC(F)(F)F)cc2C(=O)N([C@@H](C)CO)C[C@@H]1C,0.2
CC(C)NC(=O)N(C)C[C@@H]1Oc2c(NS(=O)(=O)c3ccc(F)cc3)cccc2C(=O)N([C@@H](C)CO)C[C@@H]1C,0.8
Cc1noc(C)c1S(=O)(=O)N(C)C[C@@H]1OCCCC[C@@H](C)Oc2ccc(NC(=O)Nc3ccc(F)cc3)cc2C(=O)N([C@@H](C)CO)C[C@H]1C,-0.7
COc1ccc(CN(C)C[C@H]2Oc3c(NC(=O)c4ccc(-c5nccs5)cc4)cccc3C(=O)N([C@@H](C)CO)C[C@H]2C)cc1,0.3
C[C@@H]1CN([C@H](C)CO)C(=O)c2cc(N(C)C)ccc2O[C@H]1CN(C)Cc1ccc(C(=O)O)cc1,-1.0
Cc1c(NC(=O)/C(C#N)=C/c2cccc([N+](=O)[O-])c2)c(=O)n(-c2ccccc2)n1C,0.3
C[C@@H]1CN([C@H](C)CO)C(=O)c2cc(NC(=O)Nc3ccc4c(c3)OCO4)ccc2O[C@@H](C)CCCCO[C@@H]1CN(C)C(=O)C1CCCCC1,2.1
Cc1noc(C)c1NC(=O)Nc1ccc2c(c1)C(=O)N([C@H](C)CO)C[C@H](C)[C@H](CN(C)C(=O)CCCN(C)C)OCCCC[C@H](C)O2,-0.9
Cc1ccc(S(=O)(=O)N(C)C[C@H]2Oc3ccc(NC(=O)Nc4cccc5ccccc45)cc3C(=O)N([C@H](C)CO)C[C@H]2C)cc1,0.6
C[C@@H]1CN([C@@H](C)CO)C(=O)c2cc(NC(=O)Nc3cccc4ccccc34)ccc2O[C@H]1CN(C)Cc1ccc(Cl)c(Cl)c1,-1.5
C[C@H](CO)N1C[C@H](C)[C@H](CN(C)Cc2ccc3c(c2)OCO3)Oc2ccc(NC(=O)NC3CCCCC3)cc2C1=O,0.2
C[C@@H]1CN([C@@H](C)CO)C(=O)Cc2cc(NC(=O)Nc3ccccc3)ccc2O[C@@H]1CN(C)CC1CC1,-0.2
C[C@@H]1CN([C@H](C)CO)C(=O)Cc2cc(NC(=O)Cn3cnnn3)ccc2O[C@H]1CN(C)S(=O)(=O)c1ccccc1,1.8
C[C@@H]1CN([C@H](C)CO)C(=O)Cc2cc(NS(=O)(=O)c3cccs3)ccc2O[C@H]1CN(C)S(C)(=O)=O,-0.5
C[C@H](CO)N1C[C@H](C)[C@H](CN(C)S(C)(=O)=O)Oc2ccc(NC(=O)Nc3ccccc3)cc2C1=O,-1.1
C[C@@H]1CN([C@@H](C)CO)C(=O)c2cc(N(C)C)ccc2O[C@@H](C)CCCCO[C@H]1CN(C)Cc1ccccc1,-0.3
C[C@@H]1CN([C@H](C)CO)C(=O)c2cc(NC(=O)CCC(F)(F)F)ccc2O[C@@H](C)CCCCO[C@@H]1CN(C)S(=O)(=O)c1ccc(Cl)cc1,1.0
C[C@H]1CN([C@@H](C)CO)C(=O)c2cccc(NS(=O)(=O)c3cccs3)c2O[C@@H]1CN(C)S(=O)(=O)c1ccccc1,1.0
C[C@H](CO)N1C[C@H](C)[C@H](CN(C)Cc2ccncc2)Oc2ccc(NC(=O)Cn3cnnn3)cc2CC1=O,0.0
C[C@@H]1CN([C@H](C)CO)C(=O)c2cc(NC(=O)NC3CCCCC3)ccc2O[C@H]1CN(C)S(=O)(=O)c1cccs1,0.9
C[C@H](CO)N1C[C@H](C)[C@@H](CN(C)C)Oc2c(NS(=O)(=O)c3cn(C)cn3)cccc2C1=O,-0.2
COc1ccc(S(=O)(=O)Nc2ccc3c(c2)C(=O)N([C@H](C)CO)C[C@@H](C)[C@H](CN(C)Cc2ccccc2)OCCCC[C@@H](C)O3)cc1,0.0
C[C@H](CO)N1C[C@H](C)[C@@H](CN(C)Cc2ccc(Oc3ccccc3)cc2)Oc2c(NC(=O)c3ccncc3)cccc2C1=O,-0.2
C[C@@H]1CN([C@@H](C)CO)C(=O)c2cccc(NC(=O)c3nc4ccccc4s3)c2O[C@@H]1CN(C)S(=O)(=O)c1cccs1,0.4
C[C@@H]1CN([C@H](C)CO)C(=O)Cc2cc(NC(=O)Nc3ccc(C(F)(F)F)cc3)ccc2O[C@@H]1CN(C)Cc1ccc(C(F)(F)F)cc1,1.4
C[C@H]1CN([C@@H](C)CO)C(=O)Cc2cc(NC(=O)CCCCCC(=O)Nc3ccccc3N)ccc2O[C@@H]1CN(C)S(=O)(=O)c1ccc(Cl)cc1,0.5
C[C@@H]1CCCCO[C@H](CN(C)C)[C@@H](C)CN([C@H](C)CO)C(=O)c2cc(NS(=O)(=O)c3ccc(Cl)cc3)ccc2O1,-1.1
C[C@@H]1CN([C@H](C)CO)C(=O)CCCn2nncc2CO[C@@H]1CN(C)Cc1ccc(C(=O)Nc2ccccc2N)cc1,0.4
CC(C)NC(=O)Nc1ccc2c(c1)C(=O)N([C@H](C)CO)C[C@H](C)[C@@H](CN(C)C(=O)Nc1ccc3c(c1)OCO3)OCCCC[C@@H](C)O2,-0.8
COc1ccc(CN(C)C[C@H]2Oc3ccc(NC(=O)Nc4ccc(OC)cc4)cc3C(=O)N([C@@H](C)CO)C[C@H]2C)cc1,0.6
C[C@@H]1CCCCO[C@H](CN(C)C(=O)Nc2cccc3ccccc23)[C@H](C)CN([C@@H](C)CO)C(=O)c2cc(NC(=O)CCC(F)(F)F)ccc2O1,1.2
CC(C)NC(=O)Nc1ccc2c(c1)C(=O)N([C@@H](C)CO)C[C@H](C)[C@@H](CN(C)C(=O)c1ccncc1)OCCCC[C@H](C)O2,0.4
O=C(NCc1nc2ccccc2[nH]1)C1=C[C@@H](c2csc3ccccc23)C[C@@H](OCc2ccc(CO)cc2)O1,-0.1
CNC[C@@H]1OCCCC[C@@H](C)Oc2ccc(NS(=O)(=O)c3ccc(F)cc3)cc2C(=O)N([C@@H](C)CO)C[C@H]1C,-0.2
CC(C)NC(=O)N(C)C[C@@H]1Oc2ccc(NC(=O)NC3CCCCC3)cc2C(=O)N([C@@H](C)CO)C[C@@H]1C,-0.7
CC(C)NC(=O)Nc1cccc2c1O[C@@H](CN(C)Cc1ccc(Oc3ccccc3)cc1)[C@H](C)CN([C@H](C)CO)C2=O,0.1
Cc1ccc(S(=O)(=O)Nc2ccc3c(c2)CC(=O)N([C@@H](C)CO)C[C@H](C)[C@@H](CN(C)Cc2ccc(Oc4ccccc4)cc2)O3)cc1,-0.1
C=CC(COC(C)=O)NS(=O)(=O)c1ccc(Br)cc1 (configuration not stated),0.6
C[C@@H]1CCCCO[C@H](CN(C)C(=O)Nc2ccc3c(c2)OCO3)[C@@H](C)CN([C@H](C)CO)C(=O)c2cc(N(C)C)ccc2O1,-0.7
C[C@@H]1CCCCO[C@@H](CN(C)C(=O)Nc2ccc(F)cc2)[C@@H](C)CN([C@H](C)CO)C(=O)c2cc(NC(=O)NC3CCCCC3)ccc2O1,0.7
Cc1noc(C)c1S(=O)(=O)N(C)C[C@@H]1Oc2ccc(NS(=O)(=O)c3cccs3)cc2C(=O)N([C@H](C)CO)C[C@@H]1C,-0.3
C[C@@H]1CN([C@H](C)CO)C(=O)c2cc(NC(=O)Nc3ccccc3)ccc2O[C@H]1CN(C)CC1CCCCC1,2.2
O=C(NCc1ccccc1)C1=C[C@@H](c2cccs2)C[C@@H](OCCCCO)O1,1.0
Cc1ccc(S(=O)(=O)N(C)C[C@@H]2Oc3c(NC(=O)CCCCCC(=O)Nc4ccccc4N)cccc3C(=O)N([C@@H](C)CO)C[C@H]2C)cc1,-0.8
C[C@@H]1CCCCO[C@@H](CN(C)CC2CCCCC2)[C@@H](C)CN([C@@H](C)CO)C(=O)c2cc(NC(=O)CCCN(C)C)ccc2O1,0.2
COc1ccc(CN(C)C[C@H]2Oc3ccc(NS(=O)(=O)c4ccccc4)cc3C(=O)N([C@@H](C)CO)C[C@@H]2C)cc1,0.6
C[C@H]1CCCCO[C@@H](CN(C)S(=O)(=O)c2ccccc2)[C@@H](C)CN([C@@H](C)CO)C(=O)c2cc(NC(=O)C3CCCCC3)ccc2O1,-0.6
C[C@H](CO)N1C[C@H](C)[C@H](CN(C)Cc2ccc3c(c2)OCO3)Oc2ccc(NC(=O)Nc3ccc(F)cc3)cc2C1=O,-1.0
C[C@H](CO)N1C[C@H](C)[C@@H](CN(C)Cc2ccc(C(F)(F)F)cc2)Oc2ccc(NC(=O)C3CC3)cc2C1=O,0.0

Carrying on:
SMILES,A1 apoptosis 2
COc1ccc(S(=O)(=O)N(C)C[C@@H]2Oc3c(NS(=O)(=O)c4ccccc4)cccc3C(=O)N([C@H](C)CO)C[C@H]2C)cc1,0.4
Cc1noc(C)c1S(=O)(=O)Nc1ccc2c(c1)CC(=O)N([C@@H](C)CO)C[C@@H](C)[C@@H](CN(C)C(=O)NC1CCCCC1)O2,-0.7
C[C@@H]1CCCCO[C@@H](CN(C)C(=O)Nc2ccccc2)[C@@H](C)CN([C@H](C)CO)C(=O)c2cc(NC(=O)c3ccncc3)ccc2O1,0.6
C[C@H](CO)N1C[C@H](C)[C@@H](CN(C)C)Oc2ccc(NC(=O)Nc3ccccc3)cc2C1=O,-0.1
C[C@H](CO)N1C[C@H](C)[C@@H](CN(C)C(=O)Nc2ccc(C(F)(F)F)cc2)Oc2c(NS(=O)(=O)c3ccc(Cl)cc3)cccc2C1=O,0.2
COc1ccc(S(=O)(=O)Nc2ccc3c(c2)C(=O)N([C@H](C)CO)C[C@H](C)[C@@H](CN(C)C(=O)CCCN(C)C)OCCCC[C@@H](C)O3)cc1,-0.5
N#Cc1ccc(/C=N/NC(=O)CCCCCCC(=O)NO)cc1,1.4
COc1ccc(-c2cnc3c(c2)C(=O)N([C@H](C)CO)C[C@H](C)[C@H](CN(C)C(=O)NC2CCCCC2)O3)cc1,0.9
C[C@@H]1CCCCO[C@H](CN(C)Cc2ccc(C(F)(F)F)cc2)[C@@H](C)CN([C@H](C)CO)C(=O)c2cc(NS(=O)(=O)c3ccc(Cl)cc3)ccc2O1,1.6
Cc1noc(C)c1NC(=O)Nc1ccc2c(c1)C(=O)N([C@@H](C)CO)C[C@@H](C)[C@H](CN(C)S(C)(=O)=O)O2,0.0

Some values from above:
Under A1 apoptosis 2, C[C@@H]1CN([C@H](C)CO)C(=O)c2cc(NC(=O)Nc3ccccc3)ccc2O[C@H]1CN(C)CC1CCCCC1 reads 2.2
Under A1 apoptosis 2, COc1ccc(S(=O)(=O)Nc2ccc3c(c2)C(=O)N([C@H](C)CO)C[C@H](C)[C@@H](CN(C)C(=O)CCCN(C)C)OCCCC[C@@H](C)O3)cc1 reads -0.5

New compounds follow:
SMILES,A1 apoptosis 2
Cc1cc(C(=O)Nc2cccc3c2O[C@H](CN(C)CC2CC2)[C@@H](C)CN([C@@H](C)CO)C3=O)n(C)n1,-1.3
C[C@@H]1CN([C@@H](C)CO)C(=O)Cc2cc(NC(=O)Nc3ccccc3)ccc2O[C@@H]1CN(C)Cc1ccc2c(c1)OCO2,-0.2
CCCC(O)C#Cc1cnc2c(c1)C(=O)N([C@H](C)CO)C[C@H](C)[C@H](CN(C)S(=O)(=O)c1cccc(F)c1)O2 (some centres not stated),-0.7
C[C@H](CO)N1C[C@H](C)[C@H](CN(C)C(=O)NC2CCCCC2)OCCCC[C@H](C)Oc2ccc(NC(=O)Nc3ccc4c(c3)OCO4)cc2C1=O,-0.3
C[C@@H]1CCCCO[C@H](CN(C)C(=O)Nc2ccc3c(c2)OCO3)[C@H](C)CN([C@H](C)CO)C(=O)c2cc(NS(=O)(=O)c3ccc(F)cc3)ccc2O1,-0.6
C[C@@H]1CN([C@H](C)CO)C(=O)c2cc(NC(=O)CCC(F)(F)F)ccc2O[C@H]1CN(C)C(=O)NC1CCCCC1,0.4
C[C@@H]1CN([C@@H](C)CO)C(=O)c2cc(NC(=O)C3CC3)ccc2O[C@H]1CN(C)Cc1ccncc1,-0.4
Cc1ccc(S(=O)(=O)N(C)C[C@@H]2Oc3ccc(NC(=O)Nc4ccc5c(c4)OCO5)cc3C(=O)N([C@@H](C)CO)C[C@H]2C)cc1,0.2
COc1ccc(CN(C)C[C@H]2Oc3ccc(NS(=O)(=O)c4ccc(OC)cc4)cc3C(=O)N([C@H](C)CO)C[C@@H]2C)cc1,0.6

Quoted at random: 3 entries already listed, in no set order.
SMILES,A1 apoptosis 2
C[C@@H]1CN([C@H](C)CO)C(=O)c2cc(NC(=O)CCC(F)(F)F)ccc2O[C@H]1CN(C)C(=O)NC1CCCCC1,0.4
Cc1cc(C(=O)Nc2cccc3c2O[C@H](CN(C)CC2CC2)[C@@H](C)CN([C@@H](C)CO)C3=O)n(C)n1,-1.3
C[C@@H]1CN([C@@H](C)CO)C(=O)Cc2cc(NC(=O)Nc3ccccc3)ccc2O[C@@H]1CN(C)Cc1ccc2c(c1)OCO2,-0.2
